High-throughput results: PubChem, National Center for Advancing Translational Sciences (NCATS)
Rango dissoc inh: inhibitors of RanGTP-induced Rango-importin beta complex dissociation; O95149+P62826; Biochemical FRET Rango-importin beta, RanGTP-induced dissociation; Potency, µM (top dose mostly 46.1 µM), for the others: at the highest dose activity change, negative = inhibition; 340,000 compounds, 0.071% hits; active means falling FRET ratio curve, often poorly fitted, with flat reads before Ran was added; inconclusive means other falling curves, or compound fluorescence or quenching; inactive means flat or rising ratio curve;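 also: potency is read from the fitted curve at half-maximal effect; % of control where 0% means no effect; nearly all actives have a fitted effect of over 45% in size; -100% = wells without RanGTP and RCC1; the record marks most hits as doubtful in a second field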
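Recombinant Rango FRET biosensor (EYFP–snurportin 1 IBB–cerulean CFP10) at 0.1 uM premixed with 0.25 uM importin beta in PBS, 1 mM DTT, 0.02% Tween-20, 0.1% BSA. Compound added 5 min; RanGTP-RCC1 (0.6 uM Ran, 2 mM GTP, 0.2 uM RCC1) then triggers release, read at 45 min.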
Rango-impB inh: inhibitors of Rango-importin beta complex formation. Potency, µM (doses to about 92.2 µM), inactives show at the highest dose inhibition of complex formation. AID 540263. Q14974. 340,000 compounds, 0.031% hits. Rango CFP/YFP FRET sensor + importin beta, 45 min; active = rising FRET ratio curve, often small or poorly fitted; inconclusive = mostly compound fluorescence or quenching in the first reads; inactive = flat curves in all reads;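 also: potency is read from the fitted curve at half-maximal effect; 0% = DMSO wells and 100% = buffer wells lacking importin beta; nearly all actives have a fitted effect of over 15% in size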
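FRET biosensor Rango (snurportin 1 IBB between N-terminal EYFP and C-terminal Cerulean), 50 nM in PBS/1 mM DTT/0.02% Tween-20/0.1% BSA, preincubated 5 min RT with compound; 0.125 microM importin beta added, 45 min RT, CFP/YFP FRET ratio read.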
miR-21 FLuc: raises the signal of a miR-21 reporter; 340,000 tested, under 10 active; Potency, µM (highest dose often 38.3 µM), inactives show at the top dose reporter change, positive = more light; HeLa miR-21 FLuc reporter, luciferase, 48 h; AID 2288; active = well fitted rising curve with a large enough effect; inconclusive = small, poorly fitted or top-dose-only effect; inactive = no such curve, though single readings can be large or run the other way;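 also: % of control where 0% means no effect; miR-21 action dims this reporter so a rising signal means less miR-21 action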
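HeLa miR-21-FLuc reporter line, endogenous miR-21; 2000 cells/well in DMEM/10% FBS; compound titration up to ~40uM final, 48 h, 37 degree Celsius; luciferase detection reagent, 15 min lysis, CCD luminescence.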
GLA inh pH 4.5: alpha-galactosidase A (human) inhibition, pH 4.5; P06280; purified enzyme, 4-MU-alpha-Gal fluorescence, pH 4.5; activity change, negative = inhibition, % at 105 µM; 230,000 tested, under 10 active; inconclusive = small, poorly fitted or top-dose-only inhibition, or a rising curve; inactive = flat fitted curve, though single readings scatter; no compound was filed as active;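 also: 0% = full activity with enzyme and -100% = basal without enzyme; dose as in the result columns while the protocol names 77 µM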
Target sequence (P06280 whole entry, looked up): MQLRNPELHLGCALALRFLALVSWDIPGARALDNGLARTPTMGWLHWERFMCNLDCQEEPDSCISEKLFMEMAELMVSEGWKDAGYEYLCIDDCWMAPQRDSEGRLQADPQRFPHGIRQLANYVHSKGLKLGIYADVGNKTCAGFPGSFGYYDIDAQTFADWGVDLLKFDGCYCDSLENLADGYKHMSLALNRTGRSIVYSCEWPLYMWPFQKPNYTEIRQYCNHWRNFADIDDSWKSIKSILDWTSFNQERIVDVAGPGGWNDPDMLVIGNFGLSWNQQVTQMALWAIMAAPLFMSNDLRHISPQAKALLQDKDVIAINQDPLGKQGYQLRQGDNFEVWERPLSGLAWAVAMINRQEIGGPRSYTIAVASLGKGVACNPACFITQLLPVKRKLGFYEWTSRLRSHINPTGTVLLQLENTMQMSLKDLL
The depositor's hits bear a star; ? = inconclusive; . = no result given; & = joins results of further samples. These rows are one share of the data (hit frequency here may not be typical).

SMILES	Rango dissoc inh	Rango-impB inh	miR-21 FLuc	GLA inh pH 4.5
CCN(CC(=O)NC1CCS(=O)(=O)C1)S(=O)(=O)c1ccc2ccccc2c1 (stereo not given)	-15%	-7.1%	1%	-6
CCN(CC)S(=O)(=O)c1ccc(OC)c(NC(=O)c2cc(C)on2)c1	9%	1.6%	-1%	2
CCc1cccc(CC)c1NC(=S)N(CCN(C)C)C(C)c1cccnc1 (stereo not given)	2%	1.2%	-3%	-5
Cc1cc(C(=O)NC2Cc3ccccc3C2)c(C)o1	4%	-2.9%	-60%	-7
COc1ccc(OC)c(Nc2nc(N)nc(CSc3nnc(N)s3)n2)c1	-4%	1.1%	-2%	-1
CCOc1ccc(-c2nnc(SCc3nc4ccccc4[nH]3)n2N)cc1	-9%	-3.8%	-36%	0
CCOC(=O)c1ccc(N2C(=O)C3CC=C(C)CC3C2=O)cc1 (stereo not given)	-1%	-0.8%	-5%	-6
COc1ccccc1C1CCCN1Cc1nc(-c2cc3c(cc2Cl)OCO3)oc1C (stereo not given)	0%	4.5%	3%	-8
Cc1cccc(N(CC(=O)NC(C)C)C(=O)CCC(=O)Nc2ccccn2)c1	5%	-0.7%	-2%	.
CC(=O)N1CCN(C(=O)c2cc3c(s2)CCC(C)C3)CC1 (stereo not given)	-6%	-0.9%	.	.
CNC(=S)N/N=C/c1c(Cl)cccc1Cl	7%	3.1%	-14%	5
CC(C)=CCc1cc(-c2oc3cc(O)cc(O)c3c(=O)c2O)ccc1O	-13%	-0.7%	.	.
Fc1ccc(C2=NOC(c3nnc(-c4ccccc4)o3)C2)cc1 (stereo not given)	7%	-0.9%	-19%	-7
COC(=O)N/N=C/c1cc(N=Nc2ccccc2)ccc1O	8%	-2.4%	-17%	-7
Cc1ccc2nc(NNC(=O)c3ccc4c(c3)OCCO4)sc2c1	-3%	-1.9%	-19%	-2
COc1ccc(-c2ccnc(SCC(=O)Nc3ccccn3)n2)cc1	-11%	?	-14%	-22
CC1(C)C(=O)Nc2ccccc2N1C(=O)COC(=O)C1CCCCC1	20%	-2.8%	0%	12
CCCn1c2ccc(C)cc2c2nnc(SCCN3CCCCC3)nc21	19%	0.6%	6%&-2%	.
CC(=O)Nc1cccc(OCC(=O)Nc2ccccc2)c1	-10%	1.8%	-43%	-2
CCOc1ccc(Nc2cc3n(c(=O)n2)CCc2cc(OC)c(OC)cc2-3)cc1	31%	6.2%	-28%	.
Cc1ccc(/C=c2\sc3nc(-c4cccnc4)nn3c2=O)cc1	-1%	-0.2%	-15%	2
Cc1cc(C)c2c(CCl)cc(=O)oc2c1	15%	1.4%	27%	-16
CCCc1cc(=O)[nH]c(SCc2ccc(Cl)cc2)n1	-1%	-0.2%	-10%	0
O=C(CCC(=O)N1CCN(c2cccc(Cl)c2)CC1)N1CCN(c2ccccc2)CC1	5%	0.5%	12%	.
C/C(=N\NC(=S)NC1CCCCC1)c1cccc(Br)c1	4%	-3.0%	-21%	1
CCN(c1ccccc1)S(=O)(=O)c1ccc(C(=O)N2CCN(c3ccccc3)CC2)cc1	0%	-0.1%	.	.
CN(C)c1ccc(/C=N/n2c(-c3cccnc3)n[nH]c2=S)cc1	1%	1.4%	-8%	6
NC(=O)c1nsc(C(=O)N(CCCN2CCOCC2)C(C(=O)NC2CCCCC2)c2ccc(Cl)cc2)c1N (stereo not given)	0%	2.0%	0%	.
O=C(CCN1C(=O)c2ccccc2S1(=O)=O)Nc1ccc2c(c1)OCCO2	-8%	-4.0%	-4%	-1
COC(=O)c1cc(OC)c(OC)cc1NC(=O)Cc1ccccc1[N+](=O)[O-]	-1%	0.1%	-5%	4
C/C(=N\Nc1nc(C)cc(=O)[nH]1)C1CC1	3%	2.3%	-6%	-10
Cc1ccc(C(=O)Oc2cc(C)n(C)c(=O)c2)cc1	1%	0.6%	0%	-1
NC(=O)N1CC(O)CC1C(=O)Nc1ccc(Cl)c(Cl)c1 (stereo not given)	-4%	-0.7%	0%	-6
OC1C2CCC(C2)C1CN1CCOCC1 (stereo not given)	-18%	?	.	.
O=C(C1CC1)N1CCN(c2ccc([N+](=O)[O-])cc2-n2cccc2)CC1	-7%	-0.8%	13%	-3
CC(C)C(c1nnnn1CC1CCCO1)N1CCN(C2CCCC2)CC1 (stereo not given)	21%	-0.7%	-3%	2
c1ccc(CCc2nc(-c3ccccc3)no2)cc1	?	5.4%	-41%	-3
CCSc1nncn1/N=C/c1ccc(OC)c(OC)c1	-1%	0.3%	-56%	-3
COc1ccc(-c2c(-c3cc(OC)cc(OC)c3)n(C)c3ccc(-c4cnc(N)nc4)cc23)cc1	-22%	2.4%	.	.
COc1ccccc1CN1C[C@@H]2C[C@@H](c3ccccc3OC)N3CCC[C@@]23C1=O	7%	-0.3%	-3%	-5
CCCCS(=O)(=O)N1CCCC(C(=O)Oc2ccccc2)C1 (stereo not given)	9%	-1.0%	5%	.
CN(C)/C=N/c1sc2c(c1C#N)CCCCC2	11%	1.1%	-66%	6
CCOc1cc(N2CCOCC2)c(OCC)cc1NC(=O)Cn1[nH]c(=O)c2ccccc2c1=O	18%	7.0%	0%&3%	5&6
COc1cccc(C(=O)NC2CCN(CC(=O)Nc3c(C)cc(C)cc3C)CC2)c1	.	.	-1%	-5
CCC1(C)SC(NC(C)=O)=NN1C(C)=O (stereo not given)	18%	2.7%	-2%	2
CCc1ccc(N2CC(C(=O)NNC(=O)c3ccc(F)cc3)CC2=O)cc1 (stereo not given)	-2%	-0.9%	.	.
CN(C(=O)Nc1ccc(Cl)cc1)c1c2c(nn1C)CCCC2	-12%	1.7%	-5%	10
Cc1cc(C)n(-c2ccc(C(=O)OCC(=O)N(CC(C)C)C3CCS(=O)(=O)C3)cc2)n1 (stereo not given)	0%	4.3%	-10%	6
O=C(Cc1cccs1)N(Cc1ccco1)C1(C(=O)NC2CCCC2)CCCCC1	-11%	-2.9%	13%	-22
Cc1cccc(Oc2ccccc2NC(=O)c2cnccn2)c1	6%	-3.9%	0%	-2
COc1ccc(/C=C2\SC(=S)N(CCCC(=O)Nc3ccccn3)C2=O)cc1OC	?	?	11%	-10
CC(C)(C)OC(=O)NCCC(=O)N/N=C/c1cccc2nccnc12	0%	0.7%	-3%	0
COc1cc(C(=O)Nc2ccc(Oc3ncnc4sc(-c5ccccc5)cc34)cc2)cc(OC)c1OC	-4%	-1.6%	1%	-7
COc1ccc(-c2nc3cnccn3c2NC(C)(C)CC(C)(C)C)cc1O	-12%	-0.6%	27%	-1
N#C/C(=N/Nc1ccccc1[N+](=O)[O-])C(N)=S	-5%	3.3%	0%	-16
COc1cc(/C=C2\SC(=S)N(CCCCC(=O)O)C2=O)ccc1OS(=O)(=O)c1ccc(C)cc1	-6%	4.1%	.	.
CC(C)CN(C(=O)C1CCCCC1)C1CCS(=O)(=O)C1 (stereo not given)	-19%	3.0%	.	.
COc1ccc(C(C)(C)C)cc1NC(=O)C1C2C=CC(C2)C1C(=O)O (stereo not given)	-19%	0.5%	0%	-7
O=S(=O)(NCC1CCCO1)c1ccc2oc3ccc(S(=O)(=O)NCC4CCCO4)cc3c2c1 (stereo not given)	-9%	-0.1%	-5%	8
O=C(CCS(=O)(=O)c1ccccc1)Nc1nc2c(s1)CCCC2	-5%	-1.2%	-1%	3

Following part.
SMILES	Rango dissoc inh	Rango-impB inh	miR-21 FLuc	GLA inh pH 4.5
O=C(Nc1ccc(C(=O)O)cc1)/C(=C\c1ccccc1)NC(=O)c1ccc(Br)cc1	0%	0.2%	-1%	.
CC1CCN(C(=O)CSc2nnc(-c3ccc(S(=O)(=O)N4CCOCC4)cc3)n2C)CC1	?	-0.6%	-2%	3
Cc1cccc(CCNC(=O)CCc2c(C)nc3ncnn3c2C)c1	4%	4.3%	-3%&-5%	-2
O=C(COC(=O)c1ccccc1NS(=O)(=O)c1cc([N+](=O)[O-])ccc1Cl)c1ccccc1	.	.	0%	2
Cc1cc(NC(=O)c2ccc(C)o2)no1	-14%	0.0%	-19%	.
NC(=O)c1nsc(C(=O)N(c2ccccc2)C(C(=O)NCC2CCCO2)c2ccc(F)cc2)c1N (stereo not given)	-2%	0.1%	0%	.
NS(=O)(=O)c1ccc(CCNC(=O)c2ccccc2-c2ccccc2)cc1	3%	1.3%	0%	.
Cc1ccc(/C=C/C(=O)N2CCc3ccccc32)o1	-23%	-8.9%	-63%	-4
CCOc1ccc(-n2cc(C(=O)Nc3cccc(Cl)c3)c3cc(OC)c(OC)cc3c2=O)cc1	1%	-0.6%	11%	-27
CCOC(=O)N1CCC(NC(=O)C2CCN(S(=O)(=O)c3cccc4cccnc34)CC2)CC1	-1%	3.0%	6%	-1
c1ccc(CSc2ncn(-c3ccccc3)n2)cc1	8%	-3.9%	-50%	-2
CCN(CC)CCN1CNC(=S)N(c2ccccc2OC)C1	-7%	-0.4%	3%	-8
COc1cc(C(=O)Nc2ccc(S(=O)(=O)NC(C)(C)C)cc2)cc(OC)c1OC	-4%	2.1%	16%	-1
FC(F)Oc1ccc(NC(=S)N2CCc3ccccc32)cc1	-4%	-1.8%	-6%	3

In the list so far, these have a halogen.
SMILES	Rango dissoc inh	Rango-impB inh	miR-21 FLuc	GLA inh pH 4.5
COc1ccccc1C1CCCN1Cc1nc(-c2cc3c(cc2Cl)OCO3)oc1C (stereo not given)	0%	4.5%	3%	-8
CNC(=S)N/N=C/c1c(Cl)cccc1Cl	7%	3.1%	-14%	5
Fc1ccc(C2=NOC(c3nnc(-c4ccccc4)o3)C2)cc1 (stereo not given)	7%	-0.9%	-19%	-7
Cc1cc(C)c2c(CCl)cc(=O)oc2c1	15%	1.4%	27%	-16
CCCc1cc(=O)[nH]c(SCc2ccc(Cl)cc2)n1	-1%	-0.2%	-10%	0
O=C(CCC(=O)N1CCN(c2cccc(Cl)c2)CC1)N1CCN(c2ccccc2)CC1	5%	0.5%	12%	.
C/C(=N\NC(=S)NC1CCCCC1)c1cccc(Br)c1	4%	-3.0%	-21%	1
NC(=O)c1nsc(C(=O)N(CCCN2CCOCC2)C(C(=O)NC2CCCCC2)c2ccc(Cl)cc2)c1N (stereo not given)	0%	2.0%	0%	.
NC(=O)N1CC(O)CC1C(=O)Nc1ccc(Cl)c(Cl)c1 (stereo not given)	-4%	-0.7%	0%	-6
CCc1ccc(N2CC(C(=O)NNC(=O)c3ccc(F)cc3)CC2=O)cc1 (stereo not given)	-2%	-0.9%	.	.
CN(C(=O)Nc1ccc(Cl)cc1)c1c2c(nn1C)CCCC2	-12%	1.7%	-5%	10
O=C(Nc1ccc(C(=O)O)cc1)/C(=C\c1ccccc1)NC(=O)c1ccc(Br)cc1	0%	0.2%	-1%	.
O=C(COC(=O)c1ccccc1NS(=O)(=O)c1cc([N+](=O)[O-])ccc1Cl)c1ccccc1	.	.	0%	2
NC(=O)c1nsc(C(=O)N(c2ccccc2)C(C(=O)NCC2CCCO2)c2ccc(F)cc2)c1N (stereo not given)	-2%	0.1%	0%	.
CCOc1ccc(-n2cc(C(=O)Nc3cccc(Cl)c3)c3cc(OC)c(OC)cc3c2=O)cc1	1%	-0.6%	11%	-27
FC(F)Oc1ccc(NC(=S)N2CCc3ccccc32)cc1	-4%	-1.8%	-6%	3
